Bioassay records: PubChem BioAssay, ICCB-Longwood Screening Facility, Harvard Medical School
AID504770: growth inhibition of E. coli YBA685, primary screen, V. cholerae RctB inhibitors; 0.27% of 130,000 active; z-score (no concentration beside the values); AID 504770, 2011; E. coli YBA685 rctB-dependent plasmid, OD600 growth, 3 h; stronger effect = lower value;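 active = z-score under -2 on both plates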;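 note: wells of about 30 µL received 100 nL stock; score is relative to mean and SD of the test wells; the first replicate is given; strong numbers were not always called active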
Ba CapD inh: Bacillus anthracis CapD inhibitors, primary screen, biochemical, fluorescence intensity; purified CapD enzyme, fluorescence intensity read-out; stronger effect = lower value; some hits fall short of the stated cut; z-score (test concentration not listed); CapD gamma-glutamyltranspeptidase (Bacillus anthracis Ames Ancestor); AID 492967, 2010; 0.23% of 140,000 active;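 active = z-score under -4 in either of two replicates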;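 note: stock transfer was 100 nL into about 40 µL; score is relative to mean and spread of the plate; one replicate is shown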
An asterisk follows results filed as active; / = no result given; & = joins results of further samples. Not all compounds are listed, so the mix of outcomes need not match the whole.

SMILES | AID504770 | Ba CapD inh
NC(=O)c1c(NC(=O)CN(CCO)c2ccccc2)sc2c1CCC2 | -0.9 | /
COc1cc(C(=O)N(Cc2ccco2)c2ccc(O)cc2)cc(OC)c1OC | -1.8 | -0.59
Cc1occc1-c1nnc2n1N=C(c1ccc(-c3cc(Cl)ccc3Cl)o1)CS2 | -0.05 | 0.56
CS(=O)(=O)N1CCC(C(=O)N2CCCCC2)CC1 | -0.05 | 0.03
COC(=O)CC1C(=O)NCCN1C(=O)CSc1nnc(-c2ccccc2)o1 (centres undefined) | -0.3 | /
Cc1ccc(C=Nc2ccc(C)cc2)cc1 | / | 0.12
CCCCNc1ncnc2nc[nH]c12 | -1.8 | /
C=CCSC1=NC2(CC(c3ccccc3)c3cc(Cl)c(O)cc3O2)CC(C)(C)N1 (centres undefined) | / | -0.29
COc1ccc(C(=O)/C=C\Nc2ccc(S(=O)(=O)N=C(N)N)cc2)cc1OC | -0.65 | /
CC(=O)N1CCc2ccc(NS(=O)(=O)c3ccccc3)cc21 | / | -0.51
CNC(=O)c1cc(-c2ccc(OC)cc2)nc2ccccc12 | -0.75 | /
Cc1ccccc1NC(=O)CC1SC(N2CCCCC2)=NC1=O (centres undefined) | 1.9 | /
CN(C)S(=O)(=O)NCc1ccc2[nH]c3c(c2c1)CCCC3 | -0.7 | 0.61
CN(C)c1ccc(C(=O)N/N=C/c2cccc3c2OCO3)cc1 | / | 0.96
Cc1noc(-c2ccc(Cl)cc2)c1NC(=O)NN1CCCCC1 | -0.15 | 0.075
c1csc(-c2nnc(N3CCOCC3)c3ccccc23)c1 | 0.9 | -0.66
N#CCOc1ccc2cc(-c3nc4ccccc4s3)c(=O)oc2c1 | / | -0.09
Cc1cc(Nc2nc3ccccc3nc2Cl)n(-c2ccccc2)n1 | 1.3 | 0.12
Cc1ccccc1NCC(=O)N1CCc2ccccc21 | 1.1 | 0.28
COc1cccc(NC(=O)c2ccnc(C(C)(C)C)c2)c1 | 0.35 | 0.17
OC(CNc1nc2ccccc2s1)c1ccccc1 (centres undefined) | 1.1 | -0.97
C=CCc1cc(C(=O)N2CCCC2)ccc1O | -0.3 | -0.29
Cc1ccc(N2COc3ccc(C(C)(C)C)cc3C2)cc1 | -0.1 | 0.77
COC(=O)C1C(c2ccc(O)cc2)C(C(=O)OC)S(=O)(=O)C(=NNc2ccc(OC)cc2[N+](=O)[O-])S1(=O)=O (centres undefined) | / | -1.1
COCC(=O)/C=C1\Sc2ccccc2N1C | 1.3 | -3.3
CC1=NN(c2ccccc2)C(=O)C1C(=O)c1ccc(F)cc1 (centres undefined) | -0.6 | -0.66
CCCS(=O)(=O)c1c(S(=O)(=O)CCC)c2ccccn2c1C(=O)c1ccc(OC)cc1 | / | -0.47
COc1cccc(-c2nc(SCN3C(=O)c4ccccc4C3=O)[nH]c(=O)c2C#N)c1 | 0.15 | 0.13
O=C(COc1ccc(Oc2ccccc2)cc1)NCc1cn2ccccc2n1 | -0.75 | 3.6
O=C(N/N=C/c1cccc(Br)c1)c1ccccc1O | 1.2 | /
Cc1c(C(=S)Nc2ccccc2)sc2ccccc12 | -0.5 | -1.7
C=CCn1c(=O)/c(=C/c2ccc3c(c2)OCO3)s/c1=C(/C#N)C(N)=O | -0.95 | /
COc1ccc(OCCCC(=O)N2CCN(S(=O)(=O)c3ccccc3C(F)(F)F)CC2)cc1 | -0.85 | /
Cc1ccc(CNS(=O)(=O)c2ccccc2)n1C | -0.9 | 1.7
C=CCn1c(SCCC(C)C)nc2sc3c(c2c1=O)CC(C)(C)OC3 | / | 6.2
O=C(Nc1ccc(F)cc1F)c1ccccc1C(F)(F)F | 0.65 | /
Cc1ccc2c(c1)-c1nc(SCc3ccc(F)cc3)ncc1CS2 | / | -0.28
O=C(CSc1ccc2c(c1)OCCO2)NC(=O)NCc1ccco1 | 0.25 | /
CCc1nn(CC(=O)NC2CCN(Cc3ccccc3)CC2)c(=O)c2cc3sccc3n12 | -0.8 | 0.89
CC(=O)Nc1ccc(C=C2C(=O)NC(=S)NC2=O)cc1 | / | 0.21

Laid out differently: five of the compounds above.
| molecule | AID504770 | Ba CapD inh |
| --- | --- | --- |
| C=CCn1c(=O)/c(=C/c2ccc3c(c2)OCO3)s/c1=C(/C#N)C(N)=O | -0.95 | / |
| COc1ccc(OCCCC(=O)N2CCN(S(=O)(=O)c3ccccc3C(F)(F)F)CC2)cc1 | -0.85 | / |
| Cc1ccc(CNS(=O)(=O)c2ccccc2)n1C | -0.9 | 1.7 |
| C=CCn1c(SCCC(C)C)nc2sc3c(c2c1=O)CC(C)(C)OC3 | / | 6.2 |
| O=C(Nc1ccc(F)cc1F)c1ccccc1C(F)(F)F | 0.65 | / |

The listing continues:
SMILES | AID504770 | Ba CapD inh
CC(C)Cn1c2c(c(O)c(C(=O)Nc3nc(C45CC6CC(CC(C6)C4)C5)cs3)c1=O)CCCC2 | / | -0.89
O=C(O)C1=C(C(=O)Nc2ccccc2)SCCS1 | -1.1 | -1.2
NS(=O)(=O)c1ccc(CCNCc2cccs2)cc1 | 0.1 | 0.58
CCn1c(=O)c2c3c(sc2n2c(=S)[nH]nc12)CCCC3 | 0.45 | 0.21
O=C(NC1CCCCC1)C(c1ccco1)N(Cc1cccs1)C(=O)C(F)(F)F (centres undefined) | 0.2 | /
Cc1ccc(Cn2c(=O)c3ccccc3n3c(SCc4nc5ccc(Cl)cc5n4CCO)nnc23)cc1 | -1 | /
Cc1c(C(=O)NCCCN2CCOCC2)cc(C(C)(C)C)n1-c1ccccc1 | 0.3 | 1.1
CCc1nn(CCCC(=O)N2CCc3ccccc3C2)c(=O)c2cc3occc3n12 | 0.6 | -0.2
N#Cc1c(C(F)(F)F)cc(-c2cccs2)nc1SCC(=O)c1ccccc1 | 0.35 | 40
O=C(CCCc1nc2ccccc2s1)OCc1nnc(-c2cccs2)o1 | 1.7 | /
Cc1ccc(OCCNC(=O)Cc2ccsc2)cc1 | 1.6 | /
CCSc1nn2c(=O)c(C(C)(C)C)nnc2s1 | 1.1 | /
COc1ccc(-c2noc(COC(=O)CSc3nc4ccccc4o3)n2)c(OC)c1 | -0.35 | /
CN1C(=O)c2ccccc2Sc2ccc(NC(=O)NCc3ccco3)cc21 | -0.05 | -0.48
CCN1CCN(C(=O)c2sc3ncnc(N4CCN(c5ccccc5)CC4)c3c2C)CC1 | / | -0.085
COc1ccc2ccccc2c1CN1CCCCC1COC(=O)N1CCN(c2sc(S(N)(=O)=O)cc2[N+](=O)[O-])CC1 (centres undefined) | / | -1
CCOc1ccc(NC(=O)C(C#N)=C2CCCCCC2)cc1 | -0.8 | 15
CCCCN1C(=O)C2CCC(=O)CC2C1=O (centres undefined) | / | -0.18
Cc1ccc(SC(C)C(=O)Nc2ncn[nH]2)cc1 (centres undefined) | 0.45 | 0.61
CN(C)c1nc(Oc2cccc(Cl)c2Cl)cc(C(F)(F)F)n1 | / | 0.44
CCCCC1C(=O)NC(=S)N(c2ccccc2)C1=O (centres undefined) | / | -0.28
CCN1C(=O)/C(=c2/s/c(=C3\Sc4ccccc4N3C)c(=O)n2CC)N(C)C1=S | / | -0.52
Cc1ccc(-c2nc3ccccc3[nH]2)cc1N=Cc1cc(Br)ccc1O | -0.05 | 40
Cc1ccc2nc(CC#N)[nH]c2c1 | -0.3 | /
COc1ccc2nc(N)sc2n1 | / | -0.12
CC(C)c1cc(O)c(-c2ccccc2)c(=O)n1-c1ccc(Cl)cc1 | 1.1 | 0.89
CC(=O)Oc1ccc2cc(-c3nc(-c4ccccc4)c(C)s3)c(=O)oc2c1 | -0.15 | -0.03
O=C(O)CCCc1ccc(N(CCCl)CCCl)cc1 | 0.1 | 0.39&-0.45
COc1ccc(-c2noc(-c3cccs3)n2)cc1OC1CCCC1 | -0.45 | -0.2
O=C(N/N=C/c1ccc(F)c(F)c1)c1cc2c(s1)-c1ccccc1CC2 | / | 3.1
CCOC(=O)c1[nH]c2cc3[n+](c(CC(C)C)c2c1C)C(C)C(C)=C3C (centres undefined) | / | 50
O=S(=O)(NCc1ccc(F)cc1F)c1ccc(-c2ccon2)s1 | 1.1 | 0.015
O=C1Nc2cc(C(=O)N3CCC(Cc4ccccc4)CC3)ccc2Sc2ccccc21 | 0.65 | 0.14
O=[N+]([O-])c1cccnc1NCc1cccnc1 | / | -0.32
CCOC(=O)N1CCN(C(=O)c2sc3ncnc(N(C)c4ccccc4)c3c2C)CC1 | / | -0.44
CCC(C)NC(=O)C1CCCN(S(=O)(=O)c2cccc3cccnc23)C1 (centres undefined) | -0.15 | 0.49
CCC(OC(=O)CC1Sc2ccccc2NC1=O)C(=O)NC1CCCC1 (centres undefined) | 0.65 | /
Clc1cccc(Cl)c1NC1=NCCN1 | / | -1&1.4
CCCn1c(CCCNC(=O)c2ccc(OC)c(OC)c2)nc2ccccc21 | 0.25 | 4.2
COc1ccc2c(c1C)CCC1=C(C)C(=O)CCC12C (centres undefined) | 1.5 | -0.2

3 structures already listed, sorted by formula weight, rising.
SMILES | AID504770 | Ba CapD inh
Cc1ccc(C=Nc2ccc(C)cc2)cc1 | / | 0.12
CCN1C(=O)/C(=c2/s/c(=C3\Sc4ccccc4N3C)c(=O)n2CC)N(C)C1=S | / | -0.52
CCOC(=O)N1CCN(C(=O)c2sc3ncnc(N(C)c4ccccc4)c3c2C)CC1 | / | -0.44

(listing goes on)
SMILES | AID504770 | Ba CapD inh
CC(=O)ONC(=Nc1ccccc1C)c1nonc1N | 0.65 | /
O=C(c1ccc(F)cc1)c1ccc(-c2nc3ccccc3nc2-c2ccccc2)cc1 | / | -0.23
CCn1ncc(C2=NOC(C(=O)NC3CCCCC3)C2)c1C (centres undefined) | 0.15 | 73
CC(=O)Oc1ccc(-c2cc(-c3ccc(OC(C)=O)cc3)nc(-c3ccccc3)n2)cc1 | / | -0.11
CC1CC(C)CN(CCCNC(=O)Cn2ncn3cccc3c2=O)C1 (centres undefined) | -0.5 | 0.21
COc1ccc(C(=O)/C=C2/NCC3c4ccccc4CCN3C2=O)cc1 (centres undefined) | 0.2 | -0.84
O=C(Nc1cccc(F)c1)c1cccc(-c2cc3ccccc3oc2=O)c1 | 0.15 | 40
COC(=O)C1=C(N)Oc2cc(C)[nH]c(=O)c2C1c1ccccc1OC (centres undefined) | -0.75 | -0.41
CN(C)C(=S)SCC(=O)Nc1cccnc1Cl | 1.1 | /
CCOC(=O)N1CCC(NC(=O)Cn2ncc3c(=O)oc4ccc(C)cc4c32)CC1 | 0.55 | 0.16
O=C(CSc1ncccn1)Nc1ccc(Br)cc1 | / | -0.28
COc1cccc2cc(-c3nnc(Nc4ccccc4F)s3)c(=O)oc12 | 0.2 | -0.1
CCCc1[nH]n(-c2nc3ccccc3s2)c(=O)c1C(C)=Nc1ccc(C(=O)OCC)cc1 | -0.1 | -0.14
O=C1C2CC=CCC2C(=O)N1CNc1ccccc1 (centres undefined) | 0.05 | -1.7
Cc1c(C(=O)NC(C)C)oc2ccccc12 | 0.2 | 0.035
COc1cc2cc(C)nc(Cc3cccc4ccccc34)c2cc1OC | -0.9 | -0.86
CC(=O)Nc1ccc(N=Cc2nc(-c3ccc(Br)cc3)oc2O)cc1 | / | 0.085
NS(=O)(=O)c1ccc(CCN2C(=O)CSC2=S)cc1 | -0.75 | /
COc1cc(=O)n(C)c2c(OCC(O)C(C)(C)O)cccc12 (centres undefined) | -0.55 | 4.3&-0.09
O=C(Cc1c(F)cccc1Cl)Nc1cc(C(=O)Nc2ccncc2)ccc1N1CC2CC(C1)c1cccc(=O)n1C2 (centres undefined) | / | 2.6
O=C(NCCc1c[nH]c2ccccc12)c1cc(CN2CCCC2)on1 | -0.55 | -0.59
COCC(C)NC(=S)NC1CC(C)(C)NC(C)(C)C1 (centres undefined) | 0.2 | /
O=c1nc(N2CCOCC2)nc(Nc2cccc(Br)c2)[nH]1 | / | 0.015
COc1ccc(N(C(C)=O)S(=O)(=O)c2cc(OC)ccc2OC)cc1 | -0.3 | -1.1
O=C1c2ccccc2C(=O)C12OC(c1ccc(Cl)cc1)C1(C(=O)c3ccccc3C1=O)C2c1ccc(F)cc1 (centres undefined) | / | 2.2
CC1CCN(c2ncccc2C(=O)NC2CCCCC2)CC1 | -0.1 | /
O=C1NC(Cc2ccc(O)cc2)C(=O)N1C12CC3CC(CC(C3)C1)C2 (centres undefined) | 0.45 | /
C=C(C)Cn1nc(C)c(-c2cc(C(=O)O)[nH]n2)c1C | -1.1 | /
NC(=O)C(c1ccc(C(=O)c2ccccc2)cc1)c1ccc(Cl)cc1Cl (centres undefined) | / | 0.025
O=C(O)c1ccc(N=NN2CCCCC2)cc1 | -0.3 | /
COc1ccc(C(=O)Nc2nccs2)cc1S(=O)(=O)N(C)Cc1ccccc1 | -0.85 | /
CCOc1cc(C(F)(F)F)cnc1C(=N)N | 1.9 | 0.49
O=c1[nH][nH]c(=O)n1CCCc1cc2cccc3ccc4cccc1c4c32 | 0.05 | 81
Cc1cccc(-c2nnc(SCC3CNC(=O)O3)n2-c2ccc(Cl)cc2)c1 (centres undefined) | 1.1 | /
COC(=O)c1sc(N)c(C(=O)OC)c1COC(=O)C1CC(=O)N(Cc2ccco2)C1 (centres undefined) | -0.8 | /
Cn1c(SCc2nc(-c3cccs3)no2)nnc1-c1ccncc1 | -0.65 | 0.03
CC(C)CC(C)(SCC(=O)O)SCC(=O)O | / | 0.34
N#CCc1ccccc1C(=O)O | 1.1 | /
Cc1nc(-c2ccccc2O)n(S(=O)(=O)N(C)C)n1 | 0.1 | -0.58
O=C(OCC(=O)N1CCCC1)c1cc(-c2ccco2)nc2ccccc12 | 0.45 | /
O=C1OC(C(=O)NCCc2ccccc2)Cc2ccccc21 (centres undefined) | 0.5 | /
Cc1ccc2[nH]cc(CCNC(=O)OCC3CCCCN3Cc3ccccc3F)c2c1 (centres undefined) | / | -0.32
CSc1cccc(NC(=O)CN(C)S(=O)(=O)c2ccc3c(c2)CC(C)N3C(C)=O)c1 (centres undefined) | -1.1 | -0.3
